# Screening data as filed in PubChem BioAssay.
# N370S GC mod – N370S glucocerebrosidase modulation, Gaucher chaperone candidate. P04062. N370S GC spleen homogenate, 4MU-glucoside fluorescence. Potency, µM (series often up to 59.4 µM), without a hit: at the highest dose activity change, negative = inhibition, actives largely listed as inhibitors. actives 0.092% (n = 330,000). AID 2101;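 also: 0% = full enzyme activity and -100% = no enzyme basal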
# FEN1 inhibitor – inhibitors of human flap endonuclease 1; Recombinant FEN1 flap cleavage, fluorescence, 15 min; Potency, µM (doses to about 114 µM), inactives show at the highest dose activity change, negative = inhibition, most hits filed as inhibitors; P39748; actives 0.35% (n = 390,000); also: nearly all actives have a fitted effect of over 65% in size
# Target sequence (P39748 whole entry, looked up): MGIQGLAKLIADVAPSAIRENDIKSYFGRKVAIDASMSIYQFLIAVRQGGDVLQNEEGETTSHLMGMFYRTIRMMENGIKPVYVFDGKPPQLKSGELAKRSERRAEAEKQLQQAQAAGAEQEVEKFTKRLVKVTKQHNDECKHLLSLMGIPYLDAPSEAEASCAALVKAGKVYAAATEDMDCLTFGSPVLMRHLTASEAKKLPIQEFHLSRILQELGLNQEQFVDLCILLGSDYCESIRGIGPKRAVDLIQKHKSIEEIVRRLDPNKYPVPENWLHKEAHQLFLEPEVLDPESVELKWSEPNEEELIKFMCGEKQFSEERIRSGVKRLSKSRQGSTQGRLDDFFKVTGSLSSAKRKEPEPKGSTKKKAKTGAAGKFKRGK
#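 Potency values derive from four-parameter Hill fits of normalized qHTS data. The reaction used 10 nM FEN1 preincubated 15 min at room temperature with compound, then 50 nM DNA substrate, read at 0 and 15 min.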
# Active calls of the source: *; ? = inconclusive; · = not tested or not shown; & = joins results of further samples; [ ] = dose if it differs, or a comment. Calls follow the shape of the dose curve; as a rule, active = well fitted curve in the direction sought with a large enough effect; inconclusive = small, poorly fitted or top-dose-only effect, or another doubt; inactive = no such curve, though single readings can be large; an effect the other way counts as inactive or inconclusive. Unless noted, % is scaled to controls: 0 for no effect and ±100 for the full control effect; potency is read from the fitted curve at half-maximal effect. Not all compounds are listed, and most or all hits are left out here.
# Start of the data: the first 5 compounds (preview)
SMILES,N370S GC mod,FEN1 inhibitor
CCN1CCN(c2oc(/C=C/c3cc(OC)c(OC)c(OC)c3)nc2C#N)CC1,·,15%
COc1cc(-c2nc3ncccn3c2Nc2ccc(C)cc2C)ccc1O,·,1%
O=C(Cn1c(=O)oc2cc(S(=O)(=O)N3CCCC3)ccc21)NC1CCCc2ccccc21 (configuration not stated),3%,-5%
Cc1cc2ccccc2n1CCNC(=O)Cc1ccccc1,15%,0%
Cc1nnc2c(N3CCN(c4ccccc4F)CC3)nc3ccc(C(=O)c4ccccc4)cc3n12,·,21%

# The listing, repeating the preview:
SMILES,N370S GC mod,FEN1 inhibitor
CCN1CCN(c2oc(/C=C/c3cc(OC)c(OC)c(OC)c3)nc2C#N)CC1,·,15%
COc1cc(-c2nc3ncccn3c2Nc2ccc(C)cc2C)ccc1O,·,1%
O=C(Cn1c(=O)oc2cc(S(=O)(=O)N3CCCC3)ccc21)NC1CCCc2ccccc21 (configuration not stated),3%,-5%
Cc1cc2ccccc2n1CCNC(=O)Cc1ccccc1,15%,0%
Cc1nnc2c(N3CCN(c4ccccc4F)CC3)nc3ccc(C(=O)c4ccccc4)cc3n12,·,21%
CCC(C)NC(=O)c1ccccc1NC(=O)/C(=C/c1ccc(OC)cc1)c1ccccc1 (configuration not stated),9%,-11%
CN1CCSc2ccc(C(=O)NCc3ccccc3)cc21,14%,9%&3%
C/C=C(/C)C(=O)OC1c2c(ccc3ccc(=O)oc23)OC(C)(C)C1OC(C)=O (configuration not stated),11%,-14%
O=C(CN(Cc1ccccc1F)C(=O)Cn1nnc(-c2cccs2)n1)NC1CCCCC1,13%,3%
COc1cc(CC(=O)Nc2cccc(C(F)(F)F)c2)cc(OC)c1OC,19%,-2%
CCC(=O)N1CCN(c2ccc(NC(=S)NC(=O)c3cc4ccccc4o3)cc2)CC1,-7%,-3%
Nc1nc(Nc2ccccc2F)nc(NCCO)c1[N+](=O)[O-],2%,-21%
N#Cc1c(-c2ccccc2)cc(C2CC2)nc1SCC(=O)c1cccs1,-5%,-2%
CCN(CC)S(=O)(=O)c1ccc(C)c(NC(=O)CN2CCN(Cc3ccccc3)CC2)c1,-14%,13%
O=C(N/N=C1/CCc2ccccc21)C1CC1,-11%,-11%
COCCNC(=O)c1cc(S(=O)(=O)N2CCOCC2)ccc1SCc1cccc(OC)c1OC,-7%,0%
Cc1nn(Cc2ccc(F)cc2)c(C)c1NC(=O)c1cnn2cccnc12,-6%,12%
CCN(Cc1ccccc1)c1ccccc1,6%,6%
CCC(CC)C(=O)Nc1cc(C)c2c(=O)oc3ccccc3c2n1,10%,-33%
Cc1ccc(C(CC(=O)c2ccco2)SCCO)cc1 (configuration not stated),-4%,-5%
COC(=O)c1cc(COc2ccc3oc(C)c(C(=O)OC(C)C)c3c2)c(C)o1,·,-3%
Cc1cc[n+](CC(=O)N2CCCc3ccccc32)cc1,-2%,12%
NC(=O)C1CCN(c2ncnc3c2cnn3-c2cccc(Cl)c2)CC1,·,-1%
CN(C)/C=N/c1sccc1C(N)=O,-17%[2.35 µM],-6%
O=C(Nc1ccc(Cl)cc1)C1CCC(=O)N1Cc1ccccc1Cl (configuration not stated),5%,-13%
CC(=O)Nc1ccc(S(=O)(=O)NNC(=O)NC23CC4CC(CC(C4)C2)C3)cc1,-15%,-1%
CCOc1ccc(OCCCC(=O)N(C)CC(=O)Nc2ccc(N3CCOCC3)cc2)cc1,-1%,-4%
O=C(Cn1ccc([N+](=O)[O-])n1)NCC1CCCO1 (configuration not stated),4%,-8%
COc1cccc(NC(=O)Nc2ccccc2Br)c1,?,-19%
Cc1nnc(Cn2cnc3c2c(=O)n(C)c(=O)n3C)o1,4%,1%
Cc1ccc(NC(=O)Nc2ccc([N+](=O)[O-])cc2)nc1,14%,1%
Cc1cc(NC(=O)c2cccc(F)c2)no1,-4%,12%
COc1ccc2nc(NC(=O)CN3CCOCC3)sc2c1,-4%,2%
Cc1nc(C(C)NC(=O)CCc2nnc(-c3ccsc3)o2)cs1 (configuration not stated),-1%,-14%
COC(=O)c1sc2ccccc2c1NC(=O)c1ccc(S(=O)(=O)N2CCC(C)CC2)cc1,2%,-7%
CSc1cccc(NC(=O)CN2C(=O)CCc3cc(S(=O)(=O)N4CCCCC4)ccc32)c1,·,-13%
CC(Oc1ccc(Cl)cc1Cl)C(=O)Nn1cnnc1 (configuration not stated),3%,-1%
CC1=[N+](C)N(c2ccccc2)C(=O)C1N=Cc1ccc(Cl)cc1 (configuration not stated),-2%,2%
Cc1c(CNCC(C)c2ccccc2)c(C(=O)O)c(C)n1Cc1ccccc1 (configuration not stated),0%,2%
Cc1cccc(-n2c(O)c(C=NCCCN3CCOCC3)c3ccccc3c2=O)c1,5%,1%
CN(C(=O)c1ccc2c(c1)SC1=NS(=O)(=O)CCN12)C(c1ccccc1)c1ccccc1,-2%,-1%
Cc1cc(C)cc(NC(=O)CCCN2C(=O)C(c3ccccc3)Oc3cccnc32)c1 (configuration not stated),-3%,-11%
O=C(O)c1ccccc1SC1CC(=O)N(c2ccc3c(c2)OCO3)C1=O (configuration not stated),-5%,-4%
Cn1cccc1C(=O)NC(=O)COC(=O)CNS(=O)(=O)c1ccc(Br)cc1,15%,-9%
COc1ccc(C(=O)NC(=S)Nc2ccc(S(=O)(=O)Nc3cc(C)on3)cc2)cc1OC,-10%,21%
CC(=O)C1=C(c2ccccc2)NC(=O)NC1c1cccs1 (configuration not stated),0%,4%
COC(=O)C(C)(C)ONC(=O)Nc1ccc([N+](=O)[O-])cc1,-5%,-1%
O=C(CN1CCN(c2ccccc2)CC1)Nc1nnc(-c2ccccc2)s1,-2%,4%
CCC1CCCCN1CCCNC(=O)CC1Oc2ccc(C)cc2NC1=O (configuration not stated),2%,4%
Cc1cccc(OCC(=O)NCC(=O)N/N=C/c2cccs2)c1,3%,4%
N#Cc1c(N)nc(SCc2ccccn2)c(C#N)c1-c1cccs1,1%,-13%
Cc1cccc(NC2SC(=O)N(c3ccccc3)C2=O)c1 (configuration not stated),4%,-19%
Cc1nn(CC(=O)N2CCCC2)c(=O)c2nn(-c3ccccc3)c(C)c12,3%,8%
CC(C)(Cc1ccccc1)/[N+]([O-])=C\c1ccc(C(F)(F)F)cc1,5%,-19%
COc1nc(NCc2ccc(Cl)cc2)nc(OC)n1,11%,-6%
O=C(NC1CCCC1)C(c1ccsc1)N(C(=O)Cc1cccs1)c1cccc(F)c1 (configuration not stated),·,-2%
CC(=O)Nc1ccc(S(=O)(=O)N(C)CC(=O)Nc2nc3ccccc3[nH]2)cc1,-11%,5%
N#Cc1ccc(-c2ccc(OCC(=O)NCC(=O)Nc3ccc(F)c(F)c3F)cc2)cc1,-4%,10%
Cc1nc(SCC(=O)O)c(C#N)c(C)c1CC(=O)c1ccccc1,-10%,-11%
CCN1C(=O)CC(c2ccco2)Sc2ccccc21 (configuration not stated),9%,-11%

# (next part)
SMILES,N370S GC mod,FEN1 inhibitor
COCc1nnc(NC(=O)CS(=O)(=O)Cc2ccccc2)s1,-1%,1%
COC(=O)CN1C(=O)Nc2ccc(C)cc2C1c1ccccc1 (configuration not stated),6%,-5%
CCN(CC)S(=O)(=O)c1ccc2oc(Nc3ccccc3)nc2c1,-4%,-18%
CCCC[C@H]1C2=C3[C@@H](CC(C(=O)OC)=C[C@@H](C(=O)OC)[C@H]3C(C)(C)C2=O)n2c(=O)n(-c3ccccc3)c(=O)n21,-2%,?
Fc1ccc(COc2ccc(/C=N/n3cnnc3)cc2)cc1,-1%,37%[activator]
COc1cc(C2CC(=O)Nc3cc4c(cc32)OCCO4)cc(Br)c1OC (configuration not stated),·,10%
O=c1oc2ccccc2n1CCCCCn1c(=O)oc2ccccc21,22%[2.35 µM],1%
CC(C)C(NC(=O)CSc1ccc(Cl)cc1)C(C)C,2%,-5%
CC12CCC(=O)C=C1CCC1C2C(=O)CC2(C)C1CCC2(O)C(=O)CO (configuration not stated),-9%,36%[activator]
Cc1ccc(NC(=O)C2CCN(c3nc4ccccc4[nH]3)CC2)cc1Cl,·,-13%
Cc1cc(F)ccc1NC(=O)c1cccnc1,4%,1%
CC(C)CN(CC(C)C)S(=O)(=O)c1ccc(C(=O)Nc2sc3c(c2C(N)=O)CC(C)(C)NC3(C)C)cc1,·,2%
CCC(C)[C@H](Nc1nc(-c2ccccc2)nc2c1oc1ccccc12)C(=O)O (some centres not stated),12%,-2%
COC(=O)c1cc(-c2cccc(OC)c2)on1,-20%,11%
Cc1sc(NC(=O)C2CCCCC2C(=O)O)c(C(N)=O)c1-c1ccc(C(C)C)cc1 (configuration not stated),16%,-5%
C/C(CC(=O)NCC(C)C)=N\NC(=O)COc1cc(C)c(Br)cc1Br,2%,0%
COc1ccc(CN2CCN(S(=O)(=O)c3ccc(F)cc3)CC2)cc1OC,-27%,-9%
O=C1NC(=O)/C(=C\c2ccc(Oc3ccc([N+](=O)[O-])cn3)cc2)S1,-11%,-7%
O=C(c1cc(COc2cccc(C(F)(F)F)c2)on1)N1CCC(c2ccncc2)CC1,4%,0%
O=C(OCC(=O)N1CCCc2ccccc21)c1cc(S(=O)(=O)N2CCOCC2)ccc1O,·,-1%

# Random excerpt: five records from the list, in no set order.
SMILES,N370S GC mod,FEN1 inhibitor
Cc1ccc(NC(=O)C2CCN(c3nc4ccccc4[nH]3)CC2)cc1Cl,·,-13%
CCN(CC)S(=O)(=O)c1ccc2oc(Nc3ccccc3)nc2c1,-4%,-18%
C/C(CC(=O)NCC(C)C)=N\NC(=O)COc1cc(C)c(Br)cc1Br,2%,0%
COC(=O)c1cc(-c2cccc(OC)c2)on1,-20%,11%
CCC(C)[C@H](Nc1nc(-c2ccccc2)nc2c1oc1ccccc12)C(=O)O (some centres not stated),12%,-2%

# Other results:
SMILES,N370S GC mod,FEN1 inhibitor
Cc1ccc(S(=O)(=O)N(CC(=O)N2CCOCC2)C2CCCCC2)cc1,-6%,-3%
Cc1ccc(S(=O)(=O)c2c(C)nn(-c3ccccc3)c2OC(=O)c2ccc(Br)o2)cc1,5%,0%
CC(=O)c1cc(C#N)c(Oc2ccc(F)cc2)nc1C,0%,1%
COc1ccc(O)c(C(=O)/C=C/c2cc3ccccc3o2)c1,5%,-7%
CCOC(=O)C1C(=O)NCC1c1ccccc1 (configuration not stated),0%,7%
CCCN(CC(=O)Nc1ccccc1OC)C(=O)c1ccc2c(c1)NC(=O)C(C)S2 (configuration not stated),·,16%
Cc1c(O)c(CN2CCCCC2)cc2c3c(c(=O)oc12)CCC3,?,4%
CCOP(=O)(OCC)C(NCc1ccccc1)c1ccc(Br)cc1 (configuration not stated),·,-11%
CC(C)n1c(SCc2ccc(Cl)cc2)nc2c1c(=O)[nH]c(=O)n2C,19%,30%
O=[N+]([O-])c1cc2c(cc1/C=N/Nc1nc(Nc3ccccc3)nc(N3CCCCC3)n1)OCO2,-9%,13%
CC(C)NC(=S)N(C)C1(c2ccccc2Cl)CCCCC1=O (configuration not stated),-3%,-13%
CC12CC3(C)CC(C)(C1)CC(C(=O)Nc1nn[nH]n1)(C2)C3,3%,5%
CN1CC(=O)N(CC(=O)NCc2ccc(F)cc2)c2ccccc2C1=O,29%,2%
CC(=O)c1c(C)[nH]c(C(=O)N(C)C(c2ccccc2)c2ccccc2)c1C,-2%,1%
CC(C)Cc1nnc(NC(=O)CCC(=O)N2CCCCC2)s1,0%,2%
CCOC(=O)C1CCN(C(=O)CSCc2nc(-c3ccc(OCC)cc3)oc2C)CC1,0%,-1%
CCOC(=O)c1ccc(NC(=O)CCc2nnc3ccc(N4CCN(C)CC4)nn23)cc1,-3%,-13%
O=C(Nc1ccccc1N1CCCCC1)c1ccc(N2C(=O)c3ccccc3C2=O)cc1,27%,-3%
Cc1ccc(C)c(OCCC(=O)NNC(=O)c2ccccc2F)c1,-13%,4%
CCc1ccc(C(=O)COC(=O)c2cc([N+](=O)[O-])ccc2NCCO)cc1,22%,-16%
Cn1cc(C(=O)N/N=C/c2ccc([N+](=O)[O-])cc2)c2ccccc21,-2%,1%
CCCC(=O)Nc1cccc(NC(=O)c2ccc3c(c2)OCO3)c1,3%,6%
O=C(Cn1cc(/C=N/O)c2ccccc21)N1CCOCC1,3%,-2%
CCOCCCNc1nc2c([nH]1)c(=O)n(C)c(=O)n2C,0%,23%
COc1cccc(NC(=O)COc2coc(CN3CCN(c4ccccc4)CC3)cc2=O)c1,-2%,3%
COc1ccc(C(=O)Nc2ccccc2C(=O)N2CCN(c3ccccc3)CC2)cc1,-7%,-3%
CCc1ccc(-c2cc(C)no2)cc1S(=O)(=O)NCCc1ccc(OC)c(OC)c1,?,2%
CC1CCCCC12NC(=O)N(CC(=O)NC(=O)Nc1ccc3c(c1)OCCO3)C2=O (configuration not stated),1%,-11%
CCOC(=O)C1CCN(C(=O)CN2C(=O)C(CC)Oc3ccccc32)CC1 (configuration not stated),5%,14%
O=C(NCc1cccs1)c1ccc(Cl)c(S(=O)(=O)N2CCCC2)c1,1%,-1%
CCn1cc(C(=O)NCCC2=CCCCC2)c(=O)c2cc(S(=O)(=O)N(C)C)ccc21,17%,18%
Cc1ccc(-c2cc[n+](Cc3ccccc3)cc2)cc1,-2%,2%
CCc1ccc(C(=O)COC(=O)C(CCSC)NC(=O)c2ccccc2)cc1 (configuration not stated),3%,-9%
COC(=O)c1cc(C)sc1NC(=O)CN1CCN(C(=O)c2ccco2)CC1,-1%,0%
